VACV Venus inh – inhibitors of vaccinia virus (Venus reporter) | Vaccinia virus Venus reporter expression, fluorescence | Potency, µM (highest dose often 36.5 µM), without a hit: at the highest dose activity change, negative = inhibition, usual class: inhibitors | hit rate 0.46% among 330,000; active means well fitted inhibition curve with a large enough effect; inconclusive means small, poorly fitted or top-dose-only effect; inactive means no such curve, though single readings can be large or run the other way; tested in A549 cells; also: nearly all actives have a fitted effect of over 30% in size; inactives centre near -10
VACV mCherry inh – vaccinia inhibition (mCherry reporter) | Vaccinia virus mCherry reporter infection, fluorescence; about a quarter of the inactives have no number | Potency, µM (doses to about 36.5 µM), inactives show top-dose activity change, negative = inhibition, hits mostly inhibitors | hit rate 0.63% among 310,000 | AID 720579; active = well fitted inhibition curve with a large enough effect; inconclusive = small, poorly fitted or top-dose-only effect; inactive = no such curve, though single readings can be large or run the other way; tested in A549 cells; also: nearly all actives have a fitted effect of over 35% in size; inactives centre near -10
Numbers without * were called inactive; i = inactive; ? = inconclusive; · = not tested or not shown; & = joins results of further samples; [ ] = another dose, or the depositor's remark. % is scaled to controls: 0 for no effect and ±100 for the full control effect; potency is read from the fitted curve at half-maximal effect.

SMILES	VACV Venus inh	VACV mCherry inh
CC(=O)N=c1c(C#N)cc2c(=O)n3ccccc3nc2n1Cc1ccccc1	-6%	i
O=C1C=C(N2CCN(C(=O)c3ccccc3)CC2)C2(CCCCC2)O1	-4%	-2%
CCOP(=O)(c1ccc(N(C)C)cc1)C(O)c1cccnc1 (centres undefined)	-11%[7.34 µM]	i[7.34 µM]
O=C(NC1CCCc2ccccc21)c1ccccc1 (centres undefined)	-22%	-16%
CCCCCC(=O)Oc1cccc(N2C(=O)C3CCCCC3C2=O)c1 (centres undefined)	-12%	-10%
Cc1ccc(Cn2c(CCCNC(=O)C3CCCCC3)nc3ccccc32)cc1	3%	i
O=C(OCC(=O)N1c2ccccc2Sc2ccccc21)c1cccnc1	-11%	?
COc1ccc(Nc2c(-c3ccc(N4CCOCC4)cc3)nc3ncccn23)cc1OC	-14%	-5%
Cc1c(Cl)cccc1NC(=S)Nc1ccccn1	-3%	-8%
CN(C)CCN=Cc1c(O)n(Cc2ccc3c(c2)OCO3)c(=O)c2ccccc12	-12%	-15%
Cc1ccc(CNC(=O)CN2C(=O)COc3ccc(S(=O)(=O)N4CCC(C)CC4)cc32)o1	-4%	-13%
COc1ccc(NC2(c3ccccc3)OC(=O)c3ccccc32)cc1 (centres undefined)	2%	0%
O=C(O)C1Cc2ccccc2CN1S(=O)(=O)c1ccc(Cl)cc1 (centres undefined)	-12%	-15%
COc1ccc(CNC(=O)C(c2cccs2)N(Cc2ccco2)C(=O)Cc2cccs2)cc1 (centres undefined)	-22%	-40%
O=C(CSc1nnc(CNC(=O)c2c(F)cccc2F)o1)NCc1ccccc1Cl	-13%	i
CC1CCN(S(=O)(=O)c2nnc(NC(=O)c3cccc(Cl)c3)s2)CC1	-25%&-18%	?
CCC(=O)N1CCc2cc(CNS(=O)(=O)c3ccc(NC(=O)CC(C)C)cc3)ccc21	-18%	-14%
COCCNC(=O)CCCn1c(SCC(=O)NCc2ccc(C)cc2)nc2c(sc3ccccc32)c1=O	-7%	-9%
Cc1cccc(C)c1NC(=O)C1CCN(C(=O)c2cccs2)CC1	8%	-10%
O=C(O)c1cc(O)c2c(c1)C(=O)c1cccc(O)c1C2=O	130%[activator]	86%[activator]
CCSc1nc2ccccc2n1C(=O)/C=C/c1ccc(OC)c(OC)c1	?	28µM*
Cc1nn(-c2ccccc2)c2sc(C(=O)N3CCc4ccccc4C3)cc12	-6%	i
COc1ccc(C(=O)OCC(=O)NC2CCCCCC2)c(OC)c1	-17%	?
CCN(CC)c1ncnc2c1ncn2Cc1c(Cl)cccc1Cl	-15%	-24%
COc1ccc(C(=O)N/C(N)=N/c2nc3ccccc3o2)cc1	?	?
CC1(C)CC2CC(C)(CN2c2ncnc3ccccc23)C1 (centres undefined)	?	-17%
O=C(COC(=O)c1cc(S(=O)(=O)N2CCCCC2)ccc1Cl)NCc1ccco1	4%	1%
O=C(Nc1cccc(Cl)c1)c1cc(S(=O)(=O)NCCc2ccc(Cl)cc2)ccc1F	?	?
O=C(NC1CC1)c1ccc2nc([C@H]3C[C@H](O)[C@@H](CO)O3)[nH]c2c1	2%	4%
Cc1cccc(NS(=O)(=O)c2ccc(Cl)cc2)n1	-10%	i
COc1cccc(/C=C(\C#N)C(=O)Nc2ccc(NC(C)=O)cc2)c1OC	-12%	i
COc1ccc(CCNc2ccc(S(N)(=O)=O)cn2)cc1	-8%	-3%
Cc1ccc(-c2nn3c(C)nnc3c3ccccc23)cc1S(=O)(=O)NCc1ccco1	-27%	-4%
CN(c1ccc(C(=O)NCc2ccccc2)cc1)S(C)(=O)=O	4%	-25%
O=S(=O)(c1ccc(Cl)s1)N1CCN(c2ncccn2)CC1	-13%	-14%
Cn1c(N)c(C(=O)COC(=O)C2(c3ccc(F)cc3)CCCC2)c(=O)n(C)c1=O	-17%	-2%[1.46 µM]
O=C(NCCc1ccccc1)c1cnc2sc(N3CCCCCC3)nn2c1=O	-13%	i
Cc1ccc(S(=O)(=O)N2[C@@H](c3ccc(F)cc3)C(C(=O)O)=CC[C@H]2c2cccs2)cc1	-1%	-7%
Cc1ccnc(N2C(=O)C3C4CC(C(Br)C4Br)C3C2=O)c1 (centres undefined)	-8%	-9%
COc1ccc(C(=O)NCc2nnc(SCC(=O)c3ccccc3)o2)cc1	-8%	i
CC(C)Sc1nc2c(cnn2-c2ccc(Cl)cc2)c(=O)[nH]1	0%	i
COC(=O)c1cc(Cl)c(NC(=O)Cc2ccccc2)cc1OC	-8%	i
O=C(Nc1cccc2ccccc12)NC1CCCCC1	-2%	i
O=C(OCCOCCN=C1NS(=O)(=O)c2ccccc21)c1ccc(F)cc1	0%	i
NS(=O)(=O)c1ccc(CCNC(=O)c2ccc3c(c2)OCO3)cc1	1%	-6%
c1ccc(C[n+]2cccc(-c3ccccc3)c2)cc1	-25%	?
CC1CCc2sc(C(=O)NNC(=O)c3ccncc3)cc2C1 (centres undefined)	-21%	i
O=C(CCc1c[nH]c2ccccc12)NCC1CCCO1 (centres undefined)	-6%	-11%
CC(C)CCNC(=O)c1cn(C)c2ccc(S(=O)(=O)N3CCOCC3)cc2c1=O	-26%	i
CCOc1ccc(OCCC(=O)NNC(=O)c2ccccc2Cl)cc1	8%	-12%
N#CCCN(CCCN1CCOCC1)CN1C(=O)c2ccccc2C1=O	6%	-14%
CCOC(=O)c1c(Nc2ccc(C)cc2)nnc(-c2ccccc2)c1-c1ccccc1	-9%	-12%
CN1CCN(c2ccc(S(=O)(=O)N3CCCCC3)cc2NC(=O)c2ccc3ccccc3c2)CC1	?	?
CCOc1cc(CNn2c(C)nnc2SCC(=O)NC(C)(C)C)ccc1OCC(=O)NC(C)(C)C	-15%	-15%
Cc1ccc(C2CC(c3cccc(C)c3)n3nc(N)nc3N2)cc1 (centres undefined)	-6%	-12%
Oc1ccc(-c2csc(Nc3ccccn3)n2)cc1	-5%	?
CC12CCC(=O)C=C1CC(O)C1C2CCC2(C)C1CCC2(C)O (centres undefined)	2%	i
COc1cccc(NC(=O)CCCN2C(=O)C3CC=CCC3C2=O)c1 (centres undefined)	-18%	-17%
Cc1nc(SCC(=O)N2CCOCC2)c2c3c(sc2n1)CCC3	12%	-7%
Nc1ccc(N2CCOCC2)cc1C(F)(F)F	7%	4%
The list continues.
SMILES	VACV Venus inh	VACV mCherry inh
O=S(=O)(c1ccccc1)c1nnn2c1nc(Nc1ccccc1)c1cc(Cl)ccc12	?	?
COc1ccccc1N1CCN(/N=C/c2cccc(Cl)c2)CC1	-9%	-12%
Cc1cc(=O)n2c(sc3ccccc32)c1C#N	-9%	i
CC(C)(C)C(=O)Nc1cccc(S(=O)(=O)NC2=NCCC2)c1	-18%	i
COc1cccc(/C=N\NC(=O)C2=NNC(=O)C2C)c1O (centres undefined)	-8%	-11%
O=C(COC(=O)c1cccc(S(=O)(=O)N2CCOCC2)c1)c1ccccc1	-14%	-11%
Cn1c(=O)[nH]c(=O)c2c1nc(CN1CCN(c3ccccc3)CC1)n2Cc1c(F)cccc1Cl	-9%	-7%
CC(=O)NCC(=O)NC1CCCc2c1cnn2-c1ccc(C(C)(C)C)cc1 (centres undefined)	-23%	-9%
O=c1c2ccccc2nc(/C=C/c2ccc3c(c2)OCO3)n1CCCO	-8%	-7%
CC(C)c1ccc(C2N3CCCN23)cc1 (centres undefined)	-3%	-14%
Cn1c(/C=N/NC(=O)c2ccccc2Br)nc2ccccc21	-6%	-26%
CCNC(=O)N(CC)C[C@H]1N[C@@](Cc2ccccc2)(C(=O)OC)[C@H]2C(=O)N(C)C(=O)[C@@H]12	0%	-2%
O=C1C2C3C=CC(C4CC34)C2C(=O)N1/N=C/c1ccc([N+](=O)[O-])o1 (centres undefined)	-7%	-5%
COc1ccc(OCC(=O)N(Cc2cccc(OC)c2)C2CCS(=O)(=O)C2)cc1 (centres undefined)	-16%	-4%
CC(=O)N1CCN=C1SCc1ccc(C)cc1	-3%	i
COc1ccc(-n2ccnc2SCC(=O)Nc2ccc3c(c2)OCO3)cc1	2%	-10%
CCOC(=O)c1c(-c2ccccc2)csc1NC(=O)C(C)NCc1ccco1 (centres undefined)	-16%	-2%
CCOC(=O)c1ccc(N(C(=O)CNC(=O)c2ccco2)C(C(=O)NCC2CCCO2)c2ccc(OC)c(OC)c2)cc1 (centres undefined)	-19%	3%
CCOC(=O)C1CCN(CCC(=O)Nc2ccc(F)cc2)CC1	-4%	-7%
O=C(COC(=O)Cc1ccc(Br)cc1)NCC1CCCCC1	-22%	i
COc1cccc(-c2cc(C(=O)NN3CCOCC3)c3ccccc3n2)c1	-6%	i
Cc1ccc2c(c1)N(C(=O)CCC(=O)N1CCOCC1)CCO2	-3%	13%
CN(C)c1ccc(-c2nc3ccc(Cl)cn3c2Nc2ccc3c(c2)OCCO3)cc1	0%	-2%
C=CCn1c(OCc2ccccc2)n[nH]c1=S	-12%	0%
CCOc1ccc(NC(=O)c2c(Nc3ccc(OC)cc3OC)sc(C(=O)c3ccc(Cl)cc3)c2N)cc1	-21%	i
CC(=O)c1cc(F)c(N2CCN(C(=O)COc3ccc(F)cc3)CC2)cc1C	-22%	-30%
CCOC(=O)c1cccc(NC(=O)c2cc3sccc3n2Cc2ccc(Cl)cc2)c1	-4%	-7%
O=C(O)CNS(=O)(=O)c1c(Cl)cccc1Cl	-2%	-13%
CCc1cccc(C)c1NS(=O)(=O)c1cc(-c2cc(C)no2)ccc1C	-9%	-14%
Cc1ccc(NC(=O)CCc2nnc(SCC(=O)Nc3ccccc3C)n2C)cc1Cl	-7%	i
COC(=O)c1ccc(S(=O)(=O)NCc2ccccc2)n1C	-12%	0%
COc1ccc(C)cc1NC(=O)C(c1ccccc1)N1CCN(CC(=O)N2CCOCC2)CC1 (centres undefined)	-10%	-14%
CCc1cc(C(=O)NC2CCCc3c2cnn3-c2ccc(F)cc2F)no1 (centres undefined)	-28%	?
CCC1(CC)NC(=O)N(CC(=O)OCC(=O)Nc2ncc(Cl)cc2Cl)C1=O	-10%	-14%
COc1ccc2nc(C3CCCCC3)nc(C3CCCCC3)c2c1	-14%	i
O=C(Nc1nccs1)C(Cl)(Cl)Cl	-5%	-10%
CC1CCCC(C)N1C(=O)COC(=O)CCC(=O)c1cccs1 (centres undefined)	1%	i
CCC(=O)N1CC2(C)CN(C(=O)CC)CC(C)(C1)C2	-4%	-13%
S=C(NCCN1CCOCC1)Nc1ccc(Nc2ccccc2)cc1	-1%	-2%
CC(=O)c1cc(C#N)c(N2CC(C)OC(C)C2)nc1C (centres undefined)	0%	-5%
Cc1ccc(NC(=O)C2CCN(C(=O)c3cccs3)CC2)cc1	-1%	36%[activator]
CC(C)CCNC(=O)CN1C(=O)NC(c2ccccc2)(c2ccccc2)C1=O	-19%	-14%
Cc1cccc(NC(=O)CSC(N)=O)c1C	-9%	·
CCCc1c(O)nc(SCc2ccccc2)[nH]c1=O	-10%	-4%
CCCCn1c(O)c(C(CC)=NCc2ccc3c(c2)OCO3)c(=O)[nH]c1=O	?	?
COC(=O)c1cc(=O)nc(NN=C2CCCCC2)s1	0%	5%
COc1ccc(CCNC(=S)NC(=O)c2cccc(Cl)c2)cc1OC	0%	14%
O=c1c(-c2cccs2)nc2ccccc2n1C(CCc1ccccc1)c1nc2ccccc2[nH]1 (centres undefined)	-7%	?
CC1CN(CCCOc2ccc([N+](=O)[O-])cc2)CC(C)O1 (centres undefined)	-15%	0%
O=C(OCCN1CCOCC1)c1ccccc1	-5%	i
COc1cc(NC(=O)CN2CCC(C)CC2)c(C)cc1[N+](=O)[O-]	-14%	i
CCn1c(C)nnc1SCC(=O)Nc1ccc2c(c1)OCCO2	-12%	-17%
C#CC[N+]1(CC#Cc2cccc3ccccc23)CCOCC1	-4%	18%
Cc1cc2ccccn2c1C(C[N+](=O)[O-])c1c(F)cccc1Cl (centres undefined)	?	10µM*
COc1ccc(Cl)cc1CN1CCN(c2nc(C)cc(C)c2C#N)CC1	-24%	·
O=Cc1ccc(OCc2ccccn2)cc1	-8%	i
COc1ccc(Br)c2c1-c1nc(NC(=O)c3ccccc3SC)sc1C2	-6%	-14%
CC(C)(CNC(=O)Cc1ccc(Cl)cc1Cl)N1CCCCC1	-3%	-20%

Copied from above, 14 compounds:
SMILES	VACV Venus inh	VACV mCherry inh
CCCCn1c(O)c(C(CC)=NCc2ccc3c(c2)OCO3)c(=O)[nH]c1=O	?	?
COC(=O)c1cc(=O)nc(NN=C2CCCCC2)s1	0%	5%
COc1ccc(CCNC(=S)NC(=O)c2cccc(Cl)c2)cc1OC	0%	14%
O=c1c(-c2cccs2)nc2ccccc2n1C(CCc1ccccc1)c1nc2ccccc2[nH]1 (centres undefined)	-7%	?
CC1CN(CCCOc2ccc([N+](=O)[O-])cc2)CC(C)O1 (centres undefined)	-15%	0%
O=C(OCCN1CCOCC1)c1ccccc1	-5%	i
COc1cc(NC(=O)CN2CCC(C)CC2)c(C)cc1[N+](=O)[O-]	-14%	i
CCn1c(C)nnc1SCC(=O)Nc1ccc2c(c1)OCCO2	-12%	-17%
C#CC[N+]1(CC#Cc2cccc3ccccc23)CCOCC1	-4%	18%
Cc1cc2ccccn2c1C(C[N+](=O)[O-])c1c(F)cccc1Cl (centres undefined)	?	10µM*
COc1ccc(Cl)cc1CN1CCN(c2nc(C)cc(C)c2C#N)CC1	-24%	·
O=Cc1ccc(OCc2ccccn2)cc1	-8%	i
COc1ccc(Br)c2c1-c1nc(NC(=O)c3ccccc3SC)sc1C2	-6%	-14%
CC(C)(CNC(=O)Cc1ccc(Cl)cc1Cl)N1CCCCC1	-3%	-20%

High-throughput results (PubChem)
